Source: PubChem (several laboratories)
LANA-H2A inh: blockers of LANA interaction with H2A/H2B – biochemical, FP readout, HTS, primary screen. Protein LANA1 (Human herpesvirus 8 type P (isolate GK18)), Q9QR71. cell-free LANA-H2A/H2B peptide, fluorescence polarization. inhibition, % (no concentration beside the values). hit rate 0.6% among 320,000; in the data active means inhibition mostly above about 10%, no sharp cut-off; inactive means mostly below about 6.7%;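 further: stock transfer was 7.5 nL into about 10 µL; 0% = median of vehicle wells and 100% = median of positive control wells; one replicate is shown; the record names a cut of 25% in any replicate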
E coli growth: E. coli growth inhibition, primary screen, OD600. Escherichia coli growth, 23 h; hits give low values. OD600 absorbance (no concentration beside the values). hit rate 0.21% among 330,000. AID 1053175, 2014;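 active means OD600 absorbance below the run mean of sample wells minus 3.6 SD, in any replicate, cut at about 0.56 in these data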;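 further: stock transfer was 300 nL into about 60 µL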
B2AR ag: beta2AR agonists driving receptor internalization, primary screen, cell-based, FAP fluorogen, flow cytometry; Beta-2 adrenergic receptor (Homo sapiens), P07550; Am2.2-beta2AR cells; reference of the scale not given here; response, % (test concentration not listed); hit rate 0.43% among 340,000;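 active means response above a set limit, near 3 SD of response in nonfluorescent compounds, cut at about 42% in these data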;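 further: stock transfer was 100 nL into about 11 µL; a reference agonist was the positive control; negative values mostly stem from fluorescent compounds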
Target sequence (P07550 whole entry, looked up): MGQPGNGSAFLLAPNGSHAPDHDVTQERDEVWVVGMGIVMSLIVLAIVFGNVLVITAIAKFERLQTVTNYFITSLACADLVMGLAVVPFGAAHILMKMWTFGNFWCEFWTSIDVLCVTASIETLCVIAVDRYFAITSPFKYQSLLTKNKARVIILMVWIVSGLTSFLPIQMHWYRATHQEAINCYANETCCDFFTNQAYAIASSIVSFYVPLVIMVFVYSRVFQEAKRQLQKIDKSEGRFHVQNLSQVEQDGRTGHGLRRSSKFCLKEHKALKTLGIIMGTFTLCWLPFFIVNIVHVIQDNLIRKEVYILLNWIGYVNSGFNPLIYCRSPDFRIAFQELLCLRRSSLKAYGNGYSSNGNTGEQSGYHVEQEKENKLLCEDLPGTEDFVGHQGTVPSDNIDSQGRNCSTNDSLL
UCH37 inh: inhibitors of human UCH37 deubiquitinase, primary screen, biochemical, Ub-AMC cleavage, fluorescence; hit rate 0.33% among 330,000; purified proteasome/UCH37; inhibition, % (test concentration not listed); Ubiquitin carboxyl-terminal hydrolase isozyme L5 (Homo sapiens), Q9Y5K5;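 active means mean of two replicates above 20%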;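 further: 0% = compound-free wells with enzyme and 100% = wells lacking proteasome; stock transfer was 100 nL into about 20 µL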
Target sequence (Q9Y5K5 whole entry, looked up): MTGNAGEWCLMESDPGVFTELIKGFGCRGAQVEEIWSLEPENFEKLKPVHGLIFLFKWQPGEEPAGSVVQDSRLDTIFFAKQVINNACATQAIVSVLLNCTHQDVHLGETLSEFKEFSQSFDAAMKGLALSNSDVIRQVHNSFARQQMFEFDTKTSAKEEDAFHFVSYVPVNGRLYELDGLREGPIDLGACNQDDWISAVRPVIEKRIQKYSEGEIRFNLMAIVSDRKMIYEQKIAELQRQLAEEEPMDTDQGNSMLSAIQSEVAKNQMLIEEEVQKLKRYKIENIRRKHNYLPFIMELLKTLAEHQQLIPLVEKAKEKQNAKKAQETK
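Material: human UCH37 enzyme supplied as purified proteasome complex / Amount: 0.15 nM proteasome as dispensed / Buffer or medium: pH 7.4 Tris-HCl (50 mM) with ovalbumin, ATP-MgCl2, DTT / Times: preincubation 30 min, reaction 25 min, room temperature / Technique: AMC fluorescence from Ub-AMC cleavage, excitation 355 nm, emission 460 nm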
HNF4A DNA FP: change in binding of human HNF4A to DNA, primary screen, biochemical, fluorescence polarization, FITC-DNA | hit rate 0.3% among 360,000 | activity change, % at 10 µM | Hepatocyte nuclear factor 4-alpha (Homo sapiens), P41235 | AID 1224865, 2016 | 1 h; in the data active means activity change above about 30%, passing the limit was not always enough;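 further: controls were the assay level and a saturating level of protein; the project sought stronger binding though the title names inhibitors; some compounds called inactive have numbers as strong as hits; positive values seem to mean higher polarization but the record does not say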
Bfl-1 A1 inh: caspase 3/7 activation in MEF A1-2A-BIM cells, primary screen, A1 inhibitor project, cell-based, luminescence, HTS; Caspase-Glo 3/7 luminescence, 3 h; percent of clofoctol response, vehicle zero; caspase activation, % (concentration not given with the values); hit rate 0.066% among 330,000; AID 2462, 2010;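 active means over half of replicate activation scores above 10%, or exactly half above 10 with the replicate mean above 10; inconclusive means replicate mean below 10 yet half the replicates above 10; inactive means over half of replicates below 10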;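 further: wells of about 30 µL received 50 nL stock; many hits fall short of the cut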
Vif TR-FRET: inhibitors of Vif binding to APOBEC3G peptide, primary screen, biochemical, TR-FRET, GST-Vif 1-94, biotin-A3G peptide, dose response retest (AID 1117319); hit rate 0.57% among 260,000; inhibition, %, or IC50 in µM where a hit was titrated; TR-FRET GST-Vif / biotin-A3G peptide binding; higher % means a stronger effect; test concentration not given here; strong numbers were not always called active; Virion infectivity factor (Human immunodeficiency virus type 1 group M subtype B (isolate …;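 active means above the screen mean plus three standard deviations and confirmed in dose response; inconclusive means results disagree or hit not tested in dose response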;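 further: Vif residues 1-94 fused to GST binding biotinylated APOBEC3G peptide 110-148; 0% = full assay without inhibitor and 100% = GST in place of GST-Vif; retest series ran down from 100 µM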
An asterisk follows results filed as active; i = inactive; ? = inconclusive; . = not tested or not shown; + = active, no number.

SMILES	LANA-H2A inh	E coli growth	B2AR ag	UCH37 inh	HNF4A DNA FP	Bfl-1 A1 inh	Vif TR-FRET
COc1ccccc1CC1S/C(=N/N=C/c2ccco2)NC1=O (stereo not given)	-6.1	.	-10	.	-5.1	0.2	-1%
O=C(CSc1nnc2c(Cl)cc(Cl)cn12)N1CCOCC1	-0.1	0.73	5	2.7	2.2	0.3	-2%
Cc1ccc(NC(=S)c2ccncc2)cc1	1.8	0.7	0	2.1	-1.8	-0.8	-1%
CSc1nc2sc3c(c2c(=S)[nH]1)CC(C)(C)OC3	-0.2	.	23	.	0.7	0.0	1%
Cc1cc(C)nc(NS(=O)(=O)c2ccc(NC(=O)NC3CCCCC3)cc2)n1	1.7	0.67	-1	3.8	0.0	-1.6	15%
Cc1ccc(C2/C(=C(\O)c3c(C)nc4ccccn34)C(=O)C(=O)N2CCN(C)C)o1 (stereo not given)	-4.0	0.65	3	6.2	-1.9	-0.7	9%
Cc1cc(N)n(-c2nc(-c3cccnc3)nc3ccccc23)n1	-0.5	0.73	-1	3.1	1.4	0.0	0%
CCCCSc1nc2ccccc2[nH]1	-0.8	0.66	-11	2.5	-4.0	-1.8	.
Cc1ccc(Oc2nnc(-c3ccccc3)cc2C#N)cc1	1.3	0.72	10	3.4	0.3	-0.4	31%
COc1ccc(C2NC(=S)NC(C)=C2C(=O)Nc2ccccn2)cc1 (stereo not given)	1.8	0.66	0	2.7	-0.7	0.0	8%
N#Cc1cc(NCC2CCCO2)c([N+](=O)[O-])cc1C#N (stereo not given)	0.5	0.67	-1	4.2	-2.5	1.4	-7%
Cc1ccc(S(=O)(=O)c2cn(CC(=O)Nc3ccccc3)c3ccc(F)cc3c2=O)cc1	-0.3	.	3	.	5.1	-0.2	-9%
CCCCCCc1cc2cc(-c3nnc(-c4ccccc4O)o3)c(=O)oc2cc1O	-2.7	0.7	.	-122	-98	0.5	-2%
COc1ccccc1C(=O)NNC(=S)Nc1ccccc1	.	0.69	-4	4.7	-1.3	.	.
COc1cc(C)ccc1NC(=O)Cc1csc(NC(=O)Nc2ccccc2OC)n1	-1.2	0.65	11	4.8	-1.8	-0.5	3%
Cc1ccc(-c2csc3nc(C(C)C)oc(=O)c23)c(C)c1	6.9	0.68	6	5.4	7.9	-0.3	.
Cc1ccccc1CN1C(=O)CS/C1=N/N=C/c1ccco1	-1.9	.	-8	.	1.6	-0.2	18%
O=C(Nc1ccc(NC(=O)c2ccccc2)nc1)c1ccncc1	0.0	0.68	2	-1.7	3.1	-0.6	-1%
Cc1cc(F)ccc1S(=O)(=O)N1CCCOC1CNC(=O)C(=O)NCCC1=CCCCC1 (stereo not given)	0.9	0.7	1	0.0	-0.2	0.0	8%
COc1ccc([N+](=O)[O-])cc1NC(=O)C(C)N(C)Cc1ccc(Br)cc1 (stereo not given)	.	0.72	-5	3.9	1.2	0.0	-6%
O=C(NCc1cccnc1)c1cccc(NS(=O)(=O)c2ccc(Br)cc2)c1	.	0.68	-7	5.0	1.1	-0.6	4%
O=C(Nc1ccc2oc(=O)ccc2c1)c1ccc(-c2ccc(Cl)cc2)o1	0.9	0.72	36	-11	-2.1	0.7	72%
O=C(CN(C(=O)c1csnn1)c1ccc(Br)cc1)NC1CCCC1	3.6	0.67	5	6.7	2.3	0.5	.
O=C(O)CCC(=O)N1N=C(c2ccco2)CC1c1ccco1 (stereo not given)	3.3	0.66	6	-0.4	-6.2	-0.2	16%
CC(C)=CC(=O)Nc1ccc(S(=O)(=O)Nc2onc(C)c2C)cc1	0.1	0.64	4	4.2	1.3	0.7	-5%
CN(C)CCCN(C(=O)CCOc1ccccc1)c1nc2ccc(F)cc2s1	.	0.62	5	2.5	2.2	.	-20%
Cc1c(Cc2ccccc2)sc(/N=C/c2ccc3ccccc3c2)c1C(N)=O	+	.	5	.	13	1.1	.
O=C1NC[C@H](c2ccccc2)OC(=O)[C@@H](Cc2ccc(F)cc2)CC/C=C/C[C@@H]1CC(=O)N(CCO)Cc1ccccc1	6.0	.	-3	3.1	-5.0	-0.8	.
Cc1ccccc1-n1c2nc(=O)n(C)c(=O)c-2cc2ccccc21	-1.3	0.7	1	i	2.1	0.3	13%
CCC(Oc1ccccc1)C(=O)Nc1ccsc1C(=O)OC (stereo not given)	-7.1	0.7	1	3.9	20	0.6	-5%
O=C1NC2(CCCCCC2)C(=O)N1Cc1ccccc1F	0.6	0.69	-4	4.4	-3.3	-1.0	1%
CN(C)S(=O)(=O)c1ccc(C(=O)NCC(=O)N/N=C/c2ccccc2Cl)cc1	0.1	.	5	.	5.5	1.2	.
CC(C)(Oc1ccc(Cl)cc1)C(=O)N1CCN(C(=O)c2ccco2)CC1	-2.5	0.69	-5	-3.5	-1.4	-0.6	.
O=S(=O)(c1cccc(C(F)(F)F)c1)N1CCN(S(=O)(=O)c2ccc3c(c2)OCCO3)CC1	3.3	.	-11	1.9	-3.9	0.1	.
CCCCNC(=O)[C@@H]1CC=C[C@@H]2CCN(C3CC3)C(=O)[C@@H]21	2.3	.	-5	1.7	-5.0	0.4	.
Cc1ccc2nc(C)c(C)nc2c1N	-6.3	0.75	4	1.3	0.8	0.5	?
Cc1ccc(S(=O)(=O)CCC(=O)OCn2nnc3ccccc3c2=O)cc1	-2.3	0.71	8	-0.5	-1.4	0.2	5%
COC(=O)c1[nH]c2ccccc2c1NC(=O)CN1CCN(Cc2ccc3c(c2)OCO3)CC1	2.8	0.72	11	-0.7	1.9	-1.1	-2%
CCN(CC)c1ccc(NC(=O)CN2CCN(CC(=O)Nc3ccc(F)cc3)CC2)cc1	3.2	0.7	6	1.1	-3.3	-0.2	18%
Nc1ccc(-c2nc3ccccc3s2)cn1	2.6	0.63	-5	i	1.6	-7.3	.
COc1cc(/C=C(/C#N)c2nc3ccccc3[nH]2)ccc1OC(=O)c1ccco1	-4.9	0.73	-5	-42	33	-7.3	1%
N#Cc1ccc(Sc2nc3ccccc3[nH]2)cc1C#N	-2.2	0.72	-11	2.0	5.3	-0.3	4%
CC(SCc1cn2cc(Cl)ccc2n1)C(=O)O (stereo not given)	-6.4	0.71	-4	-3.0	-2.2	0.1	-9%
COc1ccc(C)cc1CN1C(=O)c2ccccc2C1=O	-1.1	0.64	9	1.4	1.6	0.4	6%
CCCC(=O)NC(c1ccco1)c1cc(Cl)c2cccnc2c1O (stereo not given)	-2.2	0.73	0	2.0	0.0	0.0	18%
COc1ccc(S(=O)(=O)N2CCN(C(=O)CC(C)C)CC2)cc1	0.9	0.65	-8	4.1	1.1	0.3	-3%
CC(C)CCN1CCN(Cc2cccn2-c2ccc(Cl)cn2)CC1CCO (stereo not given)	0.5	0.69	-2	3.1	0.3	-0.3	22%
COc1ccccc1/C=N\N=C(\N)c1ccccn1	0.0	.	0	.	-2.0	-6.5	.
Cc1cccc([C@@H]2[C@@H]3C(=O)N(Cc4ccccc4)C(=O)[C@@H]3[C@]3(Cc4ccccc4)C(=O)N(c4ccccc4)C(=O)N23)c1	2.9	.	5	3.3	-3.0	-0.3	.
C=CCn1c(NC(=O)CC)c(C(=O)OCC)sc1=S	-0.9	0.69	-1	9.3	1.4	-0.6	0%

3 compounds from above, reduced to UCH37 inh, HNF4A DNA FP and Bfl-1 A1 inh:
canonical_smiles | UCH37 inh | HNF4A DNA FP | Bfl-1 A1 inh
CCCC(=O)NC(c1ccco1)c1cc(Cl)c2cccnc2c1O (stereo not given) | 2.0 | 0.0 | 0.0
COc1ccc(S(=O)(=O)N2CCN(C(=O)CC(C)C)CC2)cc1 | 4.1 | 1.1 | 0.3
CC(C)CCN1CCN(Cc2cccn2-c2ccc(Cl)cn2)CC1CCO (stereo not given) | 3.1 | 0.3 | -0.3

Further entries:
SMILES	LANA-H2A inh	E coli growth	B2AR ag	UCH37 inh	HNF4A DNA FP	Bfl-1 A1 inh	Vif TR-FRET
Cc1cccc(NC(=O)CSc2nnc(Cn3cnc4ccccc43)o2)c1	-1.5	0.66	9	2.5	-2.4	-0.5	4%
O=C(CC(c1ccc(F)cc1)c1ccco1)N1CCCC1 (stereo not given)	2.3	0.73	-3	3.4	1.8	0.1	20%
COc1ccc2c(c1)CC/C(=C\c1ccc(OC)c(Cn3nc(C)cc3C)c1)C2=O	-2.5	0.76	8	4.7	-0.2	0.3	-7%
CC(Sc1nc2ccccc2[nH]1)C(=O)Nc1ccc2c(c1)OCCO2 (stereo not given)	0.8	0.72	-5	0.1	3.4	0.2	-8%
Cc1noc(C)c1COc1ccc(C(=O)NCCOc2ccccc2)cc1	2.1	0.68	-1	1.1	0.8	0.2	.
O=C(Cn1cnc2ccccc2c1=O)c1ccc2c(c1)OCCO2	-6.7	0.64	-5	-0.9	-1.2	-0.6	1%
O=C(CSc1ccc(-c2ccco2)nn1)c1ccc(F)cc1	1.1	0.66	-13	0.9	-7.1	-0.4	.
O=C(NNC1=Nc2ccccc2SC1)c1ccc(F)cc1	-7.8	0.57	-1	0.7	-1.9	0.0	1%
CCN1CCN(c2cc(C)c3cc(NC(=S)NCc4cccs4)ccc3n2)CC1	-0.4	0.67	-7	-12	-1.2	0.2	0%
CCc1cc(Cn2nc(-c3ccccc3)cc2C(=O)O)on1	-2.3	0.68	-9	1.3	1.1	-1.1	.
Nc1ncncc1-c1ccc2ccccc2c1	2.6	0.62	-5	-1.3	-0.5	0.6	-3%
COc1ccc(CCNC(=O)COC(=O)c2ccc(C)s2)cc1	7.7	0.63	-2	3.9	2.5	-0.7	-10%
CC(NC(=O)c1ccco1)C(=O)O (stereo not given)	5.7	0.61	1	-0.4	-2.5	0.6	.
CN(C(=O)c1ccccc1OCc1ccc(F)cc1)c1c(N)n(Cc2ccccc2)c(=O)[nH]c1=O	.	0.64	-1	2.3	-3.1	.	3%
Cc1nn(Cc2ccccc2)c2c1C(c1ccccc1)C(C#N)=C(N)O2 (stereo not given)	1.7	0.71	-2	2.3	2.7	0.5	3%
COc1ccc(S(=O)(=O)NCc2cccnc2)cc1C(=O)N1CCCCC1	-2.6	0.69	-2	4.6	3.3	1.2	.
COc1cc(C2(c3ccc(O)c(OC)c3)C(=O)Nc3c(C)cc(Br)cc32)ccc1O	0.9	0.61	19	3.1	3.8	-1.6	.
COCCN(C(=O)CSc1nnc(C)n1Cc1ccccc1)c1c(N)n(Cc2ccccc2)c(=O)[nH]c1=O	2.0	0.68	-1	1.5	3.1	0.2	.
CCN(C(=O)CSc1ccc(S(=O)(=O)N2CCOCC2)cn1)c1ccccc1	-11	0.69	-2	2.5	2.5	-0.2	.
Cc1cc(C)c(S(=O)(=O)Nc2ncn[nH]2)cc1C	0.6	0.62	5	2.0	6.1	-0.3	.
O=C(/C=C/c1ccc(-c2cccc([N+](=O)[O-])c2)o1)N1CCOCC1	-6.4	0.64	-7	17	-3.1	0.7	?
